Rad51 HR inh: human RAD51 strand exchange inhibitors, primary screen, biochemical, fluorescence; DNA repair protein RAD51 homolog 1 (Homo sapiens), Q06609; hRad51 DNA strand exchange, fluorescence dequenching; inhibition, % at 10 µM; hit rate 0.085% among 200,000;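 active = inhibition above 40% at the single screening dose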;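 note: 0% = DMSO control wells and 100% = blanks with heterologous ssDNA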
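System: human Rad51 nucleoprotein filaments preassembled on unlabelled ssDNA. Reagent: labelled 47-mer dsDNA for strand exchange. Schedule: 30-min compound preincubation and 15-min exchange, both room temperature. Measured by: FRET fluorescence dequenching, excitation 485 nm, emission 520 nm. Read-out: Fluorescence-based percent inhibition, control- and blank-normalised. Benchmarks: plate controls and plate blanks.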
MDM2 E3 inh: MDM2-luciferase reporter signal enhancers, primary screen, MDM2 E3 ligase inhibitor project, cell-based, luminescence, 1536-well; E3 ubiquitin-protein ligase Mdm2 (Homo sapiens), Q00987; cell-based MDM2 ubiquitination luciferase reporter, 2 h; 0 = plate control, 100 = twice control, blank-subtracted; AID 1230, 2008; signal enhancement, % at 5 µM; hit rate 0.11% among 210,000;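 active = signal enhancement of 30% or more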;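 note: luminescence tracks abundance of the self-degrading MDM2-luciferase fusion protein; higher signal means inhibition of MDM2 E3 ligase activity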
Target sequence (Q00987 whole entry, looked up, the tested form may be a part): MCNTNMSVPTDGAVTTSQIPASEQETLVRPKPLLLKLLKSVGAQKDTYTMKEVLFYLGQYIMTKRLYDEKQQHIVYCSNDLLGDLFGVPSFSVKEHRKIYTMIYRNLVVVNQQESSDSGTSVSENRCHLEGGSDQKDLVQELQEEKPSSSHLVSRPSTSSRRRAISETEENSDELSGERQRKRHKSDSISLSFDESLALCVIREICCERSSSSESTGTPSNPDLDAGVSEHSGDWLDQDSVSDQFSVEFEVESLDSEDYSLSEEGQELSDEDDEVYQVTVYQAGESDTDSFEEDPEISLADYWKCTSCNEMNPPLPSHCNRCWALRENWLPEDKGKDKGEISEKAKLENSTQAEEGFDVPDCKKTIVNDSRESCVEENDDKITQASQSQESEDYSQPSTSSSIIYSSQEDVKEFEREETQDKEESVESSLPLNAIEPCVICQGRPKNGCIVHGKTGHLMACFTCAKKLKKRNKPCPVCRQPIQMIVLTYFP
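Assay system: stable mammalian line carrying autodegrading MDM2–luciferase fusion reporter; Input: 2000 cells in each well; Compound dosing: single-point 5 µM; Schedule: 2 h compound exposure at 37 °C; Signal: SteadyLite luciferase luminescence after 15 min room-temperature reagent incubation; Evaluation: % luminescence enhancement versus blank-corrected plate control mean; Benchmarks: plate controls and plate blanks.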
FXIa inh: human FXIa protease inhibitors, primary screen, biochemical, 1536-well. AID 798, 2007. purified FXIa, Boc-Glu-Ala-Arg-AMC fluorogenic substrate. inhibition, % at 5 µM. hit rate 0.14% among 220,000. Coagulation factor XI (Homo sapiens), P03951;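 active = inhibition of at least 40%; inactive = inhibition below 40%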;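 note: fluorescence of freed AMC excited at 355 nm; 0% = enzyme without compound and 100% = no enzyme blank; many of its hits are not listed in these tables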
eIF4E 4G PPI: eIF4E–eIF4G protein interaction inhibitors, primary screen, biochemical, uHTS, TR-FRET, eIF4GI fragment; Eukaryotic translation initiation factor 4E (Mus musculus) + Eukaryotic translation …; TR-FRET eIF4E-eIF4GI(517-606) binding, 2 h; inhibition, % at 21.7 µM; hit rate 0.37% among 220,000; AID 782, 2007;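 active = inhibition above about 30%, limit read from the data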;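 note: 0% = full FRET control wells and 100% = background wells lacking eIF4GI fragment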
14-3-3 Bad inh: inhibitors of 14-3-3 zeta/Bad binding, primary screen, biochemical, TR-FRET, bovine 14-3-3 zeta. 14-3-3 protein zeta/delta (Bos taurus), P63103. TR-FRET 14-3-3zeta/Dy647-pBad peptide displacement, 1 h. inhibition, % at 21.7 µM. hit rate 0.71% among 220,000. AID 781, 2007;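 active = inhibition above about 70%, limit read from the data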;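 note: 0% = full 14-3-3 plus peptide FRET controls and 100% = background without 14-3-3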
p97 ATPase inh: inhibitors of human p97 ATPase, primary screen, biochemical; Transitional endoplasmic reticulum ATPase (Homo sapiens), P55072; recombinant p97 ATPase, Kinase-Glo ATP luminescence, 3 h; inhibition, % at 8 µM; hit rate 0.42% among 220,000; AID 1481, 2009; in the data active = inhibition above about 15%;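 note: 0% = DMSO vehicle and 100% = wells lacking enzyme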
Wee1 stabilizer: Wee1 degradation inhibitors, primary screen, cell-based, HeLa, Wee1K328M-luciferase, luminescence | Wee1-like protein kinase (Homo sapiens), P30291 | HeLa Luc-Wee1K328M stability; 100% = proteasome inhibitor MG132 effect | reporter increase, % at 5 µM | hit rate 1.2% among 220,000;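 active = activation above the mean of all tested compounds plus 3 SD, set per screening run, cut at about 8.8% in these data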;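 note: cells exposed to compound for 20 h before luminescence read; 0% = DMSO alone and 100% = MG132 at 30 µM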
FXIIa inh 1536: human FXIIa protease inhibitors, primary screen, biochemical, 1536-well | purified FXIIa, Boc-QGR-AMC fluorogenic substrate, 2 h | AID 800, 2007 | inhibition, % at 5 µM | hit rate 0.3% among 220,000 | Coagulation factor XII (Homo sapiens), P00748; in the data active = inhibition above about 40%;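 note: 0% = enzyme with no compound and 100% = blank without enzyme; many of its hits are not listed in these tables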
Target sequence (P00748 20-372 limits assumed): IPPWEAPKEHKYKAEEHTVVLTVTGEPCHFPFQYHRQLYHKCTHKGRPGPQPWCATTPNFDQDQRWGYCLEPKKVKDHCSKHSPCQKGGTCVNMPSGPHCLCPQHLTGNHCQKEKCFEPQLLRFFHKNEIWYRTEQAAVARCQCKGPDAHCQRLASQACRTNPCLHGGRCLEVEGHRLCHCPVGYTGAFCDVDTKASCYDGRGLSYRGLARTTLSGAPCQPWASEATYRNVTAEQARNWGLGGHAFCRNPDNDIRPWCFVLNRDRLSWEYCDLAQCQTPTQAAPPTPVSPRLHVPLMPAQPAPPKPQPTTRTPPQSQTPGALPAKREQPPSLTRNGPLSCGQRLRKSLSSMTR
Target sequence (P00748 373-615 limits assumed): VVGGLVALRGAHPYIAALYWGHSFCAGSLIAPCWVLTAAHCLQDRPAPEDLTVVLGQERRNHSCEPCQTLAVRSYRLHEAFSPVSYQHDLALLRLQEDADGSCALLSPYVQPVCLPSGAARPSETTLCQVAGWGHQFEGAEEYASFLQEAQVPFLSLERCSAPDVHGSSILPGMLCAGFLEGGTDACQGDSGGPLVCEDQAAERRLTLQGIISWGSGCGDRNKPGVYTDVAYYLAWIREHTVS
The depositor's hits bear a star; . = no result given; & = joins results of further samples; [ ] = dose if it differs, or a comment.

cpd | SMILES | Rad51 HR inh | MDM2 E3 inh | FXIa inh | eIF4E 4G PPI
1 | N#CC1=C(N)Oc2c(oc(CO)cc2=O)C12C(=O)Nc1ccc(Cl)cc12 (stereo not given) | -5 | 7 | 4 | -1[fluorescence artefact?]
2 | Cc1ccc(SCc2nc(-c3cccnc3)no2)cc1 | 7 | -14 | 1 | 2[fluorescence artefact?]
3 | COc1ccc(C(=O)N/C(=C\c2cccs2)c2nc3ccccc3[nH]2)cc1OC | 1 | 8 | 11 | -5[fluorescence artefact?]
4 | CCCC1=C(C(=O)OCC)C(c2ccc(OC)c(CSc3ccccn3)c2)C(C#N)=C(N)O1 (stereo not given) | 9 | -1 | -8 | -5
5 | O=C(/C=C/c1ccco1)Nc1nc(-c2ccccc2)cs1 | -9 | -8 | 7 | -1
6 | CC(=O)Nc1cccc(NC(=O)CSc2nnc(Cc3cccn3C)n2-c2ccc(F)cc2)c1 | 0 | -15 | -4 | -4
7 | CC(=O)Nc1cccc(C(=O)O)n1 | 21 | -2 | -4 | 2
8 | COc1ccc(C2c3c(C)nn(-c4ccccc4)c3NC(=O)N2c2ccccc2)cc1 (stereo not given) | 7 | -4 | 8 | 3
9 | Cc1sc2ncnc(N3CCN(c4ncccn4)CC3)c2c1C | -3 | -4 | -2 | -4
10 | CCOCCCn1c(=N)c(C(=O)NCc2ccc3c(c2)OCO3)cc2c(=O)n3cccc(C)c3nc21 | -7 | -19 | -2 | 5[fluorescence artefact?]
11 | CCOc1cc(C)c(Cl)cc1S(=O)(=O)N(C)C | . | 5 | 3 | 2
12 | COc1ccc(Oc2nc3c(c(=O)n(C)c(=O)n3C)n2Cc2ccccc2)cc1 | -8 | -11 | 6 | -8
13 | CCCCN1C(=O)N(c2nnc(C(C)(C)C)s2)C(O)C1c1ccc(C)cc1 (stereo not given) | 13 | -9 | 2 | 3
14 | O=C(NN=C1CCCCCCCCCCC1)c1cccc(S(=O)(=O)N2CCOCC2)c1 | -1 | -3 | 11 | 13
15 | CC(=O)OCP(C)(=O)COC(C)=O | 0 | 8 | -3 | -3[fluorescence artefact?]

cpd | 14-3-3 Bad inh | p97 ATPase inh | Wee1 stabilizer | FXIIa inh 1536
1 | 3[fluorescence artefact?] | 4 | 3 | 16
2 | 3 | -5 | 2 | -4
3 | 4[fluorescence artefact?] | 7 | -3 | 17
4 | -9 | -5 | -3 | 3
5 | -9[fluorescence artefact?] | 5 | 5 | 13
6 | 0 | -1 | -1 | 8
7 | -23 | 2 | -1 | 2
8 | 2 | 2 | 0 | 15
9 | 4 | 2 | -2 | 1
10 | -4[fluorescence artefact?] | 7 | -3 | 10
11 | -8 | 9 | 6 | 4
12 | 3 | -5 | 1 | 11
13 | -3 | 2 | 6 | 8
14 | -2[fluorescence artefact?] | 2 | 2 | 18
15 | -5[fluorescence artefact?] | -3 | -1 | -5

The list continues.
cpd | SMILES | Rad51 HR inh | MDM2 E3 inh | FXIa inh | eIF4E 4G PPI
16 | CC(=O)c1ccc(NC(=O)C(C)OC(=O)C(C)Oc2cccc(C)c2)cc1 (stereo not given) | -3 | -12 | 7 | 7
17 | Cc1cccc2c1-c1sc(C(=O)NCCCN3CCc4ccccc4C3)cc1CO2 | 3 | . | -5 | -5
18 | Cc1ccc([N+](=O)[O-])cc1NC1CC(O)C(CO)O1 (stereo not given) | . | 1 | -2 | -3
19 | CCN1CCC2(CC1)Oc1c(OC)cccc1C1CC(c3cccnc3)=NN12 (stereo not given) | . | -9 | -3 | 1
20 | COc1cc2nc(N3CCN(C(=O)C4CCCO4)CC3)nc(N)c2cc1OC (stereo not given) | -1&-10 | -1 | -9&3 | 8&1&4
21 | Cc1ccc(-c2nc3c(cnn3-c3ccccc3)c(=O)o2)cc1 | 2 | -2 | -12 | -21
22 | O=S(=O)(NC1CCCCC1NCc1ccco1)c1ccc(Cl)cc1 (stereo not given) | -15 | -1 | 5 | 7
23 | Cc1ccc(C)c(N2CCN(C(=O)CCCN3C(=S)NC(C)(C)CC3C)CC2)c1 (stereo not given) | 1 | 4 | 8 | -3
24 | CCSc1nnc(NC(=O)CSc2nnc(Cc3cccn3C)n2-c2ccc(C)cc2)s1 | 2 | -9 | -10 | 2
25 | Cc1cc(C)nc(/N=C(\N)Nc2ccc(F)c([N+](=O)[O-])c2)n1 | -5 | -5 | -3 | 0
26 | Cc1ccc(S(=O)(=O)Nc2nc(C)cc(NCCN)n2)cc1 | -1 | 1 | -8 | -7[fluorescence artefact?]
27 | CSc1nc(N2CCOCC2)c2c3c(sc2n1)CCC3 | 10 | -13 | 18 | 2
28 | Cc1c(-c2ccc(F)cc2)nc(N)c(C#N)c1-c1cccnc1 | -9 | -93 | 20 | 2
29 | CCCC(C)c1nnc(NC(=O)c2cc(C(=O)OC)cc([N+](=O)[O-])c2)s1 (stereo not given) | -2 | -10 | 2 | 0
30 | NC1C2CN(c3nc4c(cc3F)c(=O)c(C(=O)O)cn4-c3ccc(F)cc3F)CC12 (stereo not given) | -4 | -12 | 13 | -2

cpd | 14-3-3 Bad inh | p97 ATPase inh | Wee1 stabilizer | FXIIa inh 1536
16 | 3 | -1 | -2 | 29
17 | 10 | 1 | -1 | -16
18 | -8[fluorescence artefact?] | 4 | 1 | 8
19 | -6 | 3 | -1 | 1
20 | 50&25&40 | -4&-1&-5 | 0&3&0 | 1&7
21 | -12 | -2 | 1 | -22
22 | -6 | 1 | -2 | 18
23 | -26[fluorescence artefact?] | -1 | -1 | 10
24 | 4 | -2 | 1 | -15
25 | 1 | -3 | -2 | 3
26 | 2 | -2 | -1 | 7
27 | 11 | 2 | -1 | 26
28 | -2 | -3 | 1 | 23
29 | 3[fluorescence artefact?] | 1 | 2 | 10
30 | 23 | 1 | 2 | 25

The results go on:
cpd | SMILES | Rad51 HR inh | MDM2 E3 inh | FXIa inh | eIF4E 4G PPI
31 | CCC(C)n1c(C)nc2c(c1=O)c1nc3ccccc3nc1n2CCC1=CCCCC1 (stereo not given) | 8 | 3 | 1 | -2
32 | COc1ccc(CN(Cc2cccn2C)S(=O)(=O)c2ccccc2)cc1 | 18 | -14 | -2 | -2
33 | COCCNC(=O)CSc1nc2scc(-c3ccccc3)c2c(=O)[nH]1 | -58 | . | -2 | -9
34 | CCN(CC)CCCNC(=O)c1ccc2c(SCC(=O)O)c3c(nc2c1)CCC3 | . | -6 | 0 | 2
35 | CC(=O)NS(=O)(=O)c1ccc(NC(=O)/C=C/c2ccco2)cc1 | 0 | -8 | 4 | -2
36 | Nc1cc(Nc2ccc(Br)cc2)nc(N)n1 | -23 | -16 | -6 | 5
37 | CCOc1cc(C(=O)N2CCN=C2SC)cc(OCC)c1OCC | -6 | 7 | 6 | 4
38 | CSc1ccc(S(=O)(=O)NCc2ccccc2Cl)cc1 | 4 | -8 | 1 | -1
39 | O=C(N/N=C/c1ccc(O)c2ncccc12)c1cccc(Br)c1 | -31 | 1 | 1 | 3
40 | O=C(NC1CCCC1)c1cc(Cl)ccc1[N+](=O)[O-] | . | 5 | 3 | -3
41 | CCN(c1ccc(NC(=O)COC(=O)c2ccc(S(=O)(=O)N3CCCC3)cc2)cc1)C(C)C | 2 | -18 | 3 | 4
42 | Cc1oc(C(=O)Nc2ccc(O)cc2)cc1COc1ccccc1 | 8 | -25 | -8 | -1
43 | O=Cc1cccn1Cc1ccccc1[N+](=O)[O-] | 2 | -17 | 6 | -4
44 | OCc1cnc(SCc2ccccc2)n1Cc1ccccc1 | -1 | -13 | -2 | -5
45 | CCN(C(=O)COc1cc(=O)n(CC)c2ccccc12)c1cc(Cl)ccc1OC | -5 | -15 | -1 | 2

cpd | 14-3-3 Bad inh | p97 ATPase inh | Wee1 stabilizer | FXIIa inh 1536
31 | -4 | -2 | -2 | 13
32 | -2 | 0 | 0 | -1
33 | 4 | 3 | 7 | 3
34 | 5 | 2 | 7 | 8
35 | -2 | 6 | -5 | 13
36 | -7 | 11 | 0 | 8
37 | 7 | 2 | -2 | 6
38 | 0 | 3 | -2 | 10
39 | -31 | 10 | -2 | 11
40 | 6[fluorescence artefact?] | 4 | -1 | 7
41 | 4 | 1 | 0 | 7
42 | -4 | -6 | -3 | 3
43 | 13 | -2 | 1 | 1
44 | -8 | 0 | -3 | .
45 | 8 | -6 | -3 | 13

Further records:
cpd | SMILES | Rad51 HR inh | MDM2 E3 inh | FXIa inh | eIF4E 4G PPI
46 | Cc1ccc(CNC(=O)CNC(=O)c2c(C)nn(C)c2Cl)cc1 | -11 | 4 | 1 | 0
47 | CC1(C)CC[C@]2(C(=O)O)CC[C@]3(C)C(=CCC4[C@@]5(C)CC[C@H](O)C(C)(C)C5CC[C@]43C)C2C1 (stereo not given in full) | -6 | . | 3 | 3[fluorescence artefact?]
48 | O=C(COc1ccccc1)NNC(=O)COc1ccc([N+](=O)[O-])cc1 | -12 | -5 | -4 | 3
49 | CCOc1ccccc1C(=O)N(Cc1cccs1)C1CCS(=O)(=O)C1 (stereo not given) | . | 0 | 4 | -10
50 | COc1ccc(NC2CS(=O)(=O)CC2NCc2ccccc2)cc1 (stereo not given) | -12 | . | -3 | 4

cpd | 14-3-3 Bad inh | p97 ATPase inh | Wee1 stabilizer | FXIIa inh 1536
46 | -7 | 1 | 7 | 11
47 | 5[fluorescence artefact?] | 3 | 0 | 13
48 | 1 | -1 | 0 | 5
49 | 0 | 2 | -1 | 11
50 | 5 | 8 | 7 | 5

Among those listed so far, these have a Cl atom.
cpd | SMILES | Rad51 HR inh | MDM2 E3 inh | FXIa inh | eIF4E 4G PPI
1 | N#CC1=C(N)Oc2c(oc(CO)cc2=O)C12C(=O)Nc1ccc(Cl)cc12 (stereo not given) | -5 | 7 | 4 | -1[fluorescence artefact?]
11 | CCOc1cc(C)c(Cl)cc1S(=O)(=O)N(C)C | . | 5 | 3 | 2
22 | O=S(=O)(NC1CCCCC1NCc1ccco1)c1ccc(Cl)cc1 (stereo not given) | -15 | -1 | 5 | 7
38 | CSc1ccc(S(=O)(=O)NCc2ccccc2Cl)cc1 | 4 | -8 | 1 | -1
40 | O=C(NC1CCCC1)c1cc(Cl)ccc1[N+](=O)[O-] | . | 5 | 3 | -3
45 | CCN(C(=O)COc1cc(=O)n(CC)c2ccccc12)c1cc(Cl)ccc1OC | -5 | -15 | -1 | 2
46 | Cc1ccc(CNC(=O)CNC(=O)c2c(C)nn(C)c2Cl)cc1 | -11 | 4 | 1 | 0

cpd | 14-3-3 Bad inh | p97 ATPase inh | Wee1 stabilizer | FXIIa inh 1536
1 | 3[fluorescence artefact?] | 4 | 3 | 16
11 | -8 | 9 | 6 | 4
22 | -6 | 1 | -2 | 18
38 | 0 | 3 | -2 | 10
40 | 6[fluorescence artefact?] | 4 | -1 | 7
45 | 8 | -6 | -3 | 13
46 | -7 | 1 | 7 | 11

Assay outcomes: PubChem, several laboratories

This is a subset; count on the stated rates, not on these rows.
